Ecoli rRNA inh: inhibitors of bacterial rRNA selective over humanized ribosomes; E. coli WT GFP vs humanized-ribosome RFP mutants, fluorescence, 24 h; hits give low values; DMSO median 0, no signal -100; GFP signal change (wild-type ribosome), % (concentration not given with the values); 1.6% of 350,000 active; AID 720706;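 active means significant combined selectivity score with lowered wild-type GFP, culture density cut under 30%, mutant RFP and density less affected; inactive means any of these conditions unmet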; further: one replicate is shown; some compounds called inactive have numbers as strong as hits
Ecoli rRNA inh OD600: recorded beside Ecoli rRNA inh, whose call it bears; OD600 change, %; measured here: OD600 growth;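 optical density of the mix in the first replicate; 0 = DMSO median and -100 = no signal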
Ecoli rRNA inh RFP: further read-out of Ecoli rRNA inh, marked with its call; RFP signal change, %; measured here: RFP humanized mutant strains;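 first replicate; 0 = DMSO median and -100 = no signal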
* = called active by the depositor; & = joins results of further samples. The list is partial; rates above refer to the full screens.

Ecoli rRNA inh,Ecoli rRNA inh OD600,Ecoli rRNA inh RFP,canonical_smiles
-5.7,0.5,3.4,C[C@H](CO)N1C[C@H](C)[C@@H](CN(C)S(=O)(=O)c2ccccc2)Oc2ccc(NC(=O)Nc3ccc(F)cc3)cc2C1=O
16.4,20.9,1.3,S=C(NCCc1ccccc1)N1CCC2CC1c1cc(-c3ccc4c(c3)OCO4)ccc12 (stereo unspecified)
-0.4,1.5,-1.1,C[C@H]1CN([C@@H](C)CO)C(=O)c2cccc(NC(=O)c3ccc(-c4nccs4)cc3)c2O[C@@H]1CN(C)Cc1ccc(C(=O)O)cc1
-4.2,-5.6,0.7,O=C(CC1CC1)N1CC2(C1)[C@@H](c1ccccc1)[C@@H](CO)N2Cc1cccc(F)c1
-2.4,-7.4,-0.7,O=C(C[C@@H]1CC[C@H]2[C@@H](COC[C@@H](O)CN2Cc2ccccc2)O1)N[C@@H]1CCN(Cc2ccccc2)C1
0.6,-0.5,-0.4,CO[C@H]1CN(C)C(=O)c2cc(NC(=O)c3ccc4c(c3)OCO4)ccc2OC[C@@H](C)NC[C@@H]1C
2.8,7.7,-2.2,CCCC(=O)N1CC2(C1)CN(C(=O)C1CCOCC1)[C@H](CO)c1[nH]c3cc(OC)ccc3c12
4.9,-1.4,-2.4,COc1ccc(NC(=O)Nc2ccc3c(c2)C(=O)N([C@H](C)CO)C[C@H](C)[C@H](CN(C)Cc2ccc(Cl)c(Cl)c2)OCCCC[C@@H](C)O3)cc1
2.9,9.3,-0.4,C[C@@H]1CN([C@@H](C)CO)C(=O)c2cc(NC(=O)CCN3CCOCC3)ccc2O[C@H]1CN(C)C(=O)Nc1ccccc1
-3.1,-3.1,-6.9,C[C@H]1CCCCO[C@H](CN(C)S(=O)(=O)c2ccc(F)cc2)[C@@H](C)CN([C@@H](C)CO)C(=O)c2cc(NC(=O)Nc3ccc(C(F)(F)F)cc3)ccc2O1
-8.3,-0.2,-0.9,COc1ccc(C(=O)Nc2ccc3c(c2)OC[C@@H](C)N(Cc2cocn2)C[C@H](C)[C@H](OC)CN(C)C3=O)cc1
12.8,10.7,1.7,CC1CCCCC1NC(=O)c1cc(Cl)nc2ccccc12 (stereo unspecified)
4.2,2.1,-1.4,C[C@@H]1CN([C@@H](C)CO)C(=O)c2cccc(NS(=O)(=O)c3cccs3)c2O[C@@H]1CN(C)S(=O)(=O)c1cn(C)cn1
-0.6,-3.0,4.5,CCCCCC(=O)N1C[C@H](O)[C@@H](n2cc(COC(=O)c3ccccc3)nn2)C[C@@H]1c1ccccc1
7.5,-4.7,-1.0,N#Cc1ccc(-c2ccc([C@H]3[C@@H](CO)N4CCCCN(C(=O)Nc5ccc(F)cc5)C[C@@H]34)cc2)cc1
3.0,18.9,-3.9,C[C@@H]1CN([C@H](C)CO)C(=O)c2ccccc2-c2ccccc2CO[C@@H]1CN(C)S(=O)(=O)c1ccc(F)cc1
3.0,-0.1,-2.9,C[C@@H]1CN([C@@H](C)CO)C(=O)c2cc(C#CC3(O)CCCC3)cnc2O[C@@H]1CN(C)C(=O)Nc1ccc2c(c1)OCO2
-50.7,-82.6,-15.7,NC(c1csc(NC(=O)Nc2ccc(OC(F)(F)F)cc2)n1)C1CCCCC1 (stereo unspecified)
2.0,1.2,1.9,COc1ccc(CN(C)C[C@H]2Oc3c(NC(=O)C4CCCCC4)cccc3C(=O)N([C@@H](C)CO)C[C@H]2C)cc1
-5.2,-6.8,1.9,C[C@@H]1CN([C@@H](C)CO)C(=O)c2cc(NC(=O)CCN3CCOCC3)ccc2O[C@@H]1CN(C)Cc1ccc(Cl)c(Cl)c1
3.4,-4.3,6.2,OC1(C#Cc2c(-c3ccsc3)sc3ccccc23)CCCCC1
0.0,0.0,-0.3,C[C@H]1CN([C@@H](C)CO)C(=O)c2cccc(NC(=O)c3ccc(-c4nccs4)cc3)c2O[C@@H]1CN(C)C(=O)Nc1ccc(F)cc1
0.6,-5.5,5.5,CC(C)CC#Cc1ccc2c(c1)O[C@@H](CN(C)C(=O)c1ccccc1F)[C@@H](C)CN([C@@H](C)CO)S2(=O)=O
1.8,-27.6,-5.3,O=C(NCc1cccnc1)c1cc(C2CCCN(C(=O)CCCc3ccccc3)C2)on1 (stereo unspecified)
-0.9,-0.6,0.6,O=C(C[C@@H]1C=C[C@@H](NC(=O)NC2CCCCC2)[C@H](CO)O1)NCc1ccc(F)cc1
-7.6,-12.5,2.2,C[C@@H]1CC=CC[C@@H](c2cccc(Cl)c2)NC(=O)[C@H](C)N(C)C(=O)c2ccccc2O1 (mixture of isomers)
2.1,3.3,-1.7,CCCNC(=O)[C@H]1[C@H](CO)[C@H]2Cn3c(cccc3=O)[C@@H]1N2C(=O)Nc1cc(F)ccc1F
1.8,-4.5,6.2,O=C(Cc1cccnc1)N1CC(=O)N2[C@H](CO)[C@@H](c3ccc(C#CC4CCCCC4)cc3)[C@H]2C1
-3.8,0.1,0.3,CC=Cc1ccc2n(c1=O)C[C@H]1[C@H](CO)[C@@H](C(=O)NCCC)[C@@H]2N1C(=O)c1ccccc1F (mixture of isomers)
1.0,0.9,-3.2,COc1ccc(S(=O)(=O)N(C)C[C@@H]2OCCCC[C@H](C)Oc3ccc(NC(=O)Nc4ccc(F)cc4)cc3C(=O)N([C@@H](C)CO)C[C@H]2C)cc1
-0.6,-3.5,4.4,CN(C)Cc1cn(CC[C@H]2CC[C@@H](NS(=O)(=O)c3ccc(-c4ccccc4)cc3)[C@H](CO)O2)nn1
3.6,1.4,-2.4,O=C(C1CC1)N1CC2(C1)[C@H](c1ccccc1)[C@H](CO)N2Cc1cncnc1
1.6,8.7,-2.4,O=C(CN1CCOCC1)N[C@H]1CC[C@H](CCNS(=O)(=O)c2ccccc2F)O[C@@H]1CO
-3.9,-26.2,0.9,CN(C)c1ccc2c(c1)[C@H]1C[C@@H](CC(=O)NCc3ccc(Oc4ccccc4)cc3)O[C@@H](CO)[C@H]1O2
-7.6,-0.9,-4.1,C[C@H](CO)N1C[C@H](C)[C@@H](CN(C)C(=O)c2ccccc2F)Oc2ncc(Br)cc2C1=O
0.5,6.5,-4.5,CC(C)C#Cc1cnc2c(c1)C(=O)N([C@H](C)CO)C[C@@H](C)[C@@H](CN(C)C(=O)c1cnccn1)O2
-19.4,-32.4,-1.4,CN(CC(=O)Nc1ccc(Cl)c(C(F)(F)F)c1)C(=O)C1CC(=O)N(c2ccc3c(c2)OCCO3)C1 (stereo unspecified)
-1.5,-1.9,-3.1,Cc1cc(C(=O)Nc2cccc3c2O[C@@H](CN(C)CC2CC2)[C@H](C)CN([C@H](C)CO)C3=O)n(C)n1
0.0,5.1,0.3,C[C@H](CO)N1C[C@H](C)[C@H](CN(C)Cc2ccc(-c3ccccc3)cc2)Oc2ccc(NS(=O)(=O)c3ccc(Cl)cc3)cc2CC1=O
-5.3,-16.9,0.7,CC1(C(=O)Nc2ccc3c(c2)OCCO3)CCN1Cc1ccc(-c2ccccn2)cc1 (stereo unspecified)
0.6,0.7,-0.3,C[C@H](CO)N1C[C@H](C)[C@H](CN(C)C(=O)c2ccncc2)OCc2cn(nn2)CCCC1=O
1.0,1.8,-1.9,C[C@@H]1CN([C@H](C)CO)C(=O)c2cc(C#CCN(C)C)cnc2O[C@@H]1CN(C)Cc1cccc(C(=O)O)c1
-1.6,8.5,-1.4,O=C(Nc1ccc2c(c1)[C@H]1C[C@@H](CC(=O)N3CCCCC3)O[C@H](CO)[C@H]1O2)NC1CCCCC1
1.0,11.8,-0.9,CCc1ccc(C(O)c2ncc(-c3ccc(C(F)(F)F)cc3)[nH]2)cc1 (stereo unspecified)
4.3,-10.3,4.9,COc1ccc2c3c(n(C)c2c1)[C@@H](CO)N(C(=O)Nc1ccc(F)cc1)CC31CN(C(=O)CC2CC2)C1
-8.8,-18.1,8.6,C[C@H]1CN([C@@H](C)CO)C(=O)c2cccc(NC(=O)c3nc4ccccc4s3)c2O[C@H]1CN(C)Cc1ccc2c(c1)OCO2
-16.8,-61.6,8.8,CS(=O)(=O)N1[C@H](C#N)[C@@H](c2ccc(C#Cc3cccc(F)c3)cc2)[C@@H]1CO
-1.6,-6.8,15.2,Nc1[nH]c(C(=O)c2ccccc2)c(-c2ccccc2C(F)(F)F)c1C(=O)NCCc1c[nH]c2ccccc12

Filtered by structure, the compounds so far containing a thiophene ring, fused or not
Ecoli rRNA inh,Ecoli rRNA inh OD600,Ecoli rRNA inh RFP,canonical_smiles
4.2,2.1,-1.4,C[C@@H]1CN([C@@H](C)CO)C(=O)c2cccc(NS(=O)(=O)c3cccs3)c2O[C@@H]1CN(C)S(=O)(=O)c1cn(C)cn1
3.4,-4.3,6.2,OC1(C#Cc2c(-c3ccsc3)sc3ccccc23)CCCCC1

Carrying on.
Ecoli rRNA inh,Ecoli rRNA inh OD600,Ecoli rRNA inh RFP,canonical_smiles
5.9,13.1,-3.5,C[C@H](O)C#Cc1cnc2c(c1)C(=O)N([C@H](C)CO)C[C@H](C)[C@@H](CN(C)Cc1cncnc1)O2
-0.2,3.7,-1.3,CO[C@H]1CN(C)C(=O)c2cc(NC(=O)Nc3c(C)noc3C)ccc2OC[C@H](C)N(CC2CC2)C[C@H]1C
6.1,2.2,-1.6,COCCN1CCCc2nc(-c3ccc(F)cc3)ccc21
-34.2,-64.0,5.0,C[C@@H]1CN([C@H](C)CO)S(=O)(=O)c2ccc(C#CCC3CCCC3)cc2O[C@H]1CN(C)C(=O)CN(C)C
0.5,5.2,0.6,C/C=C/c1cnc2c(c1)C(=O)N([C@H](C)CO)C[C@H](C)[C@H](CN(C)S(=O)(=O)c1cccs1)O2
4.5,5.3,-2.4,C[C@@H]1CN([C@@H](C)CO)C(=O)Cc2cc(NC(=O)CCN3CCOCC3)ccc2O[C@H]1CN(C)C(=O)Nc1cccc2ccccc12
-1.2&-6.3,-25.8&-21.1,-2.6&1.4,CC(=O)C1=CCC(c2ccc(F)cc2)N(S(=O)(=O)c2ccc(C)cc2)C1 (stereo unspecified)
-7.2,-11.3,6.9,CC(=O)Nc1cccc(-c2ccnc3c2CC(C(=O)NCc2ccc(N(C)C)cc2)O3)c1 (stereo unspecified)
1.8,5.2,-2.6,C[C@H]1CN([C@@H](C)CO)C(=O)c2cccc(NS(=O)(=O)c3ccccc3)c2O[C@@H]1CN(C)Cc1ccc(Oc2ccccc2)cc1
5.7,13.7,0.5,O=C(C[C@@H]1CC[C@@H]2[C@H](COC[C@H](O)CN2Cc2ccc(F)cc2)O1)NCc1ccncn1
-2.0,-9.7,1.9,CCN(c1ccc(OC)cc1)S(=O)(=O)N1CCCC(C(=O)NC(C)c2ccccc2)C1 (stereo unspecified)
4.7,4.2,-2.1,Cc1ccc(S(=O)(=O)Nc2cccc3c2O[C@H](CN(C)S(=O)(=O)c2ccc(F)cc2)[C@H](C)CN([C@H](C)CO)C3=O)cc1

An excerpt from above in order of the Ecoli rRNA inh value, descending:
| compound | Ecoli rRNA inh | Ecoli rRNA inh OD600 | Ecoli rRNA inh RFP |
| --- | --- | --- | --- |
| C[C@H](O)C#Cc1cnc2c(c1)C(=O)N([C@H](C)CO)C[C@H](C)[C@@H](CN(C)Cc1cncnc1)O2 | 5.9 | 13.1 | -3.5 |
| C[C@@H]1CN([C@@H](C)CO)C(=O)Cc2cc(NC(=O)CCN3CCOCC3)ccc2O[C@H]1CN(C)C(=O)Nc1cccc2ccccc12 | 4.5 | 5.3 | -2.4 |
| C[C@H]1CN([C@@H](C)CO)C(=O)c2cccc(NS(=O)(=O)c3ccccc3)c2O[C@@H]1CN(C)Cc1ccc(Oc2ccccc2)cc1 | 1.8 | 5.2 | -2.6 |

Sorted by molecular weight (low to high): part of the list above
Ecoli rRNA inh,Ecoli rRNA inh OD600,Ecoli rRNA inh RFP,canonical_smiles
-5.3,-16.9,0.7,CC1(C(=O)Nc2ccc3c(c2)OCCO3)CCN1Cc1ccc(-c2ccccn2)cc1 (stereo unspecified)
0.6,0.7,-0.3,C[C@H](CO)N1C[C@H](C)[C@H](CN(C)C(=O)c2ccncc2)OCc2cn(nn2)CCCC1=O
-0.4,1.5,-1.1,C[C@H]1CN([C@@H](C)CO)C(=O)c2cccc(NC(=O)c3ccc(-c4nccs4)cc3)c2O[C@@H]1CN(C)Cc1ccc(C(=O)O)cc1

Next records.
Ecoli rRNA inh,Ecoli rRNA inh OD600,Ecoli rRNA inh RFP,canonical_smiles
0.1,-7.1,-0.4,CCC(=O)N(C)C[C@H]1Oc2cc(C#Cc3cccnc3)ccc2S(=O)(=O)N([C@H](C)CO)C[C@H]1C
-0.8,-2.9,-0.8,CCCNC(=O)N1CCC2(CC1)CN(C(=O)NC(C)C)[C@@H](CO)c1c2c2ccc(OC)cc2n1C
-3.2,-1.1,-2.8,CC(C)NC(=O)N(C)C[C@H]1OCCCC[C@H](C)Oc2ccc(NC(=O)CCC(F)(F)F)cc2C(=O)N([C@H](C)CO)C[C@@H]1C
0.9,1.7,-1.0,CC(C)NC(=O)Nc1ccc2c(c1)C(=O)N([C@@H](C)CO)C[C@@H](C)[C@H](CN(C)C(=O)NC1CCCCC1)OCCCC[C@H](C)O2
-15.6,-54.7,19.4,CN1c2ccc(-c3cccc(C#N)c3)cc2[C@H]2[C@H](CCN2C(=O)C2CCC2)[C@H]1CO
1.5,12.6,-1.9,C[C@H](NC(=O)CC[C@H]1O[C@@H](n2ccc(=O)[nH]c2=O)[C@H](O)[C@@H]1O)c1cccc2ccccc12
0.4,10.0,-1.3,C[C@H]1COCn2nncc2CC[C@H](C)C(=O)N1
0.4,3.7,-1.0,CCCC(=O)Nc1ccc2c(c1)C(=O)N(C)C[C@H](OC)[C@H](C)CN(Cc1cncnc1)[C@H](C)CO2
0.2,7.7,-1.2,Cc1ccsc1C(=O)N1CCC1(C)C(=O)NCc1cccnc1 (stereo unspecified)
-3.4&-1.9,-1.6&-2.7,1.8&2.8,C[C@H]1CN([C@@H](C)CO)C(=O)CCCn2cc(nn2)CO[C@@H]1CN(C)S(=O)(=O)c1ccc2ccccc2c1
-5.2,-4.0,-3.4,COc1ccc(S(=O)(=O)N(C)C[C@@H]2Oc3ccc(NC(=O)CCCCCC(=O)Nc4ccccc4N)cc3C(=O)N([C@H](C)CO)C[C@@H]2C)cc1

Assay outcomes: PubChem BioAssay, Broad Institute
